ALR inh – human ALR oxidase inhibition via reduced H2O2. inhibition, % (concentration not given with the values). purified ALR, DTT oxidation, H2O2 HRP-luminol luminescence. P55789. hit rate 3.8% among 290,000;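 active = mean and each replicate at 75% or more; inconclusive = only one of the two met; inactive = neither met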;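 also: stock transfer was 7.5 nL into about 7.5 µL; 0% = neutral wells and 100% = wells with inactivated enzyme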
Calb FLC – affects C. albicans growth with fluconazole | hit rate 0.57% among 300,000 | C. albicans CaCi-2 (fluconazole-resistant clinical isolate) + fluconazole, Alamar Blue growth, 48 h | AID 1979 | growth inhibition, % (test concentration not listed);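 active = most replicates above 75%; inconclusive = exactly half above 75%; inactive = most below 75%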;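 also: all wells also contain fluconazole at 8 µg/ml as a sub-toxic cotreatment; 0% = median of DMSO wells and 100% = median of geldanamycin control wells; wells of about 8 µL received 7.5 nL stock; the first replicate is given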
HNF4A DNA FP – change in binding of human HNF4 alpha to DNA. P41235. HNF4a-FITC DNA binding, fluorescence polarization, 1 h. activity change, % at 10 µM. hit rate 0.3% among 360,000. AID 1224865; in the data active = activity change above about 30%, passing the limit was not always enough;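 also: controls were the assay level and a saturating level of protein; the project sought stronger binding though the title names inhibitors; some compounds called inactive have numbers as strong as hits; positive values seem to mean higher polarization but the record does not say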
Target sequence (P41235 whole entry, looked up): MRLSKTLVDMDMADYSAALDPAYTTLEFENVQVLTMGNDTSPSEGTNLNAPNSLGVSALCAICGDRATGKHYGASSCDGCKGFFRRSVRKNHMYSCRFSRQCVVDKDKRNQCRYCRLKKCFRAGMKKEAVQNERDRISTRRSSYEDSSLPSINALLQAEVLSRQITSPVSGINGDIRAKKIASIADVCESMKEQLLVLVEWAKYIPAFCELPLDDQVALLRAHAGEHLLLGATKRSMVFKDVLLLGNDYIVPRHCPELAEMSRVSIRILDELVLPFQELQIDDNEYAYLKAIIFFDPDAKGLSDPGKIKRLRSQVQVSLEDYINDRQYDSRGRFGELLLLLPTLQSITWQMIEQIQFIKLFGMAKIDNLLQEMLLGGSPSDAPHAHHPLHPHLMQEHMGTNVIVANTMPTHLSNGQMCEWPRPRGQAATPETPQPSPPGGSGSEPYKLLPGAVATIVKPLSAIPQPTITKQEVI
B2AR ag – activates human beta-2 adrenergic receptor causing internalization | Am2.2-beta2AR cells, FAP receptor internalization, flow cytometry; reference of the scale not given here | response, % (no concentration beside the values) | P07550 | hit rate 0.43% among 340,000;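 active = response above a set limit, near 3 SD of response in nonfluorescent compounds, cut at about 42% in these data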;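 also: stock transfer was 100 nL into about 11 µL; a reference agonist was the positive control; negative values mostly stem from fluorescent compounds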
Target sequence (P07550 whole entry, looked up): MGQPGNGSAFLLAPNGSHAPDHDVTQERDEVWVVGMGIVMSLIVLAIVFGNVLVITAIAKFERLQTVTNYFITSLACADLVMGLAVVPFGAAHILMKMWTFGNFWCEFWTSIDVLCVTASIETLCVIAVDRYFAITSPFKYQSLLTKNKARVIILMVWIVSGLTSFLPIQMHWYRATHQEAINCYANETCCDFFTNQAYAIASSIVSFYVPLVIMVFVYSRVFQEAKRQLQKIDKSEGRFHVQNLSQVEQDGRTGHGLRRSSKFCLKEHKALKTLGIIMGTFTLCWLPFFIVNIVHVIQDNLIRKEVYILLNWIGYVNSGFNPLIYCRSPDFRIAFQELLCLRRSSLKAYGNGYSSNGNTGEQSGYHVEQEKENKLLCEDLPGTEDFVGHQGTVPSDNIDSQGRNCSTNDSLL
LANA-H2A inh – blocks KSHV LANA binding to histone H2A/H2B | AID 2629 | Q9QR71 | cell-free LANA-H2A/H2B peptide, fluorescence polarization | hit rate 0.6% among 320,000 | inhibition, % (concentration not given with the values); in the data active = inhibition mostly above about 10%, no sharp cut-off; inactive = mostly below about 6.7%;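 also: stock transfer was 7.5 nL into about 10 µL; 0% = median of vehicle wells and 100% = median of positive control wells; one replicate is shown; the record names a cut of 25% in any replicate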
Vif TR-FRET – HIV-1 Vif–A3G interaction blockers – biochemical, TR-FRET, GST-Vif 1-94, biotin-A3G peptide, dose response retest, primary screen (AID 1117319); TR-FRET GST-Vif / biotin-A3G peptide binding; higher % means a stronger effect; test concentration not given here; strong numbers were not always called active; inhibition, %; hits with a dose series show IC50 in µM; hit rate 0.57% among 260,000;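 active = above the screen mean plus three standard deviations and confirmed in dose response; inconclusive = results disagree or hit not tested in dose response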;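 also: Vif residues 1-94 fused to GST binding biotinylated APOBEC3G peptide 110-148; 0% = full assay without inhibitor and 100% = GST in place of GST-Vif; retest series ran down from 100 µM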
RanGTP-Impb inh – inhibitors of RanGTP-importin-beta interaction, primary screen, biochemical, FRET, CFP-Ran, YFP-importin-beta, homogeneous; cell-free CFP-Ran/YFP-importin-beta FRET ratio; AID 2216; inhibition, % (test concentration not listed); hit rate 1.1% among 300,000;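 active = most replicates above 15%; inconclusive = exactly half above 15%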;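 also: 0% = DMSO wells and 100% = Ran loaded with GDP instead of GTP; wells of about 40 µL received 100 nL stock; the first replicate is given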
Starred values were filed as active, the others as inactive; ? = inconclusive; nt = not tested or not shown; + = active, no number; & = joins results of further samples.

structure	LANA-H2A inh	B2AR ag	RanGTP-Impb inh	HNF4A DNA FP	ALR inh	Calb FLC	Vif TR-FRET
CC(C)N1CC(C(=O)O)CC1=O (centres undefined)	-3.3	-3	4.4	1.0	-2	10	-2%
NC(=O)c1cc(S(=O)(=O)NCCc2ccccc2)cs1	0.5	-1	-0.5	0.2	-2	0	nt
CCN(CC)C(=O)CSc1nnc2c3ccccc3n(C)c2n1	-1.9	-8	0.7	-1.6	-9	-3	-6%
O=C(NN1C(=O)NC2(CCCCC2)C1=O)c1cc2cc(Cl)ccc2o1	3.8	1	nt	2.4	0	nt	nt
Cc1cccc2sc(NC(=O)CSc3nc4ccccc4o3)nc12	-2.6	-1	?	-0.2	-6	-16	-4%
Cc1nc(SCC(=O)Nc2nc3ccccc3s2)n[nH]1	1.5	2	-1.3	4.2	-12	5	1%
Cc1[nH]c(=O)c(C#N)c(C)c1CCC(=O)NCc1cccc(C(F)(F)F)c1	0.7	8	6.5	0.1	-11	1	nt
CC(C)(C)NC(=O)NC(=O)CSc1ccc(S(=O)(=O)N2CCOCC2)cn1	3.6	3	nt	1.6	10	nt	nt
COc1ccc(CCN2C(=O)CC(N3CCN(S(=O)(=O)c4ccccc4)CC3)C2=O)cc1 (centres undefined)	-2.2	6	3.1	-5.6	-2	-7	0%
CCOc1ccc(C2C(C(=O)/C=C/c3ccco3)=C(O)C(=O)N2CCN2CCOCC2)cc1OC (centres undefined)	-6.3	-8	1.3	2.9	-19	-3	?
CCS(=O)(=O)N1CCN(S(=O)(=O)c2ccc(S(=O)(=O)NC3CC3)cc2)CC1	1.3	-5	-3.1	0.6	5	-11	nt
CC(C)C[C@H](NC(=O)N1CCn2c1nc1ccccc12)C(=O)NC1CCCCC1	-3.8	-7	-0.7	-0.4	-5	-20	nt
O=C(Nc1ccc(F)c(Cl)c1)C1CC(=O)N(Cc2ccco2)C1 (centres undefined)	+	-1	nt	12	-2	nt	-3%
O=C(c1ccc(Cl)c(S(=O)(=O)N2CCCCCC2)c1)N1CCOCC1	-8.0	-3	2.6	-0.7	-3	0	0%
C=CCc1c(C)nc(C)nc1N/N=C/c1ccc(N(C)C)cc1	2.4	1	4.0	0.8	99*	3	8%
COc1ccc(N2CCN(Cc3nc(-c4ccc(Cl)cc4Cl)no3)CC2)cc1	1.1	-14	-1.4	-2.4	nt	-26	10%
CCOc1cc(CN2CCN(CCOCCO)CC2)ccc1OC	0.5	-2	5.2	-1.6	-10	-2	0%
Cc1cc(NS(=O)(=O)c2ccc(NC(=O)c3ccc(Cl)cc3Cl)cc2)no1	-12	10	6.1	0.3	15	0	nt
Cc1ccccc1CN1C(=O)C(C)S/C1=N/N=C/c1ccco1 (centres undefined)	2.3	-5	1.2	-4.7	-2	-11	2%
COc1ccc(N2CCN(C(=O)c3cc(C4CC4)nn3-c3ccccc3)CC2)cc1	nt	-5	nt	-3.6	nt	nt	-3%
COc1cc(OC)c(NS(=O)(=O)c2ccc3c(c2)NC(=O)CO3)cc1Cl	1.2	5	1.2	-2.1	-6	-5	6%
Cc1ccccc1-c1nc2sc3c(c2c(=O)n1N)CCCC3	1.2	7	3.5	1.7	0	4	1%
C=CCc1ccc(OCCCCN2CCC(C)CC2)c(OC)c1	-2.0	3	-0.5	-0.1	-2	-32	11%
CCOC(=O)C1CCCN(C(=O)c2cn(CC)c3ccc(S(=O)(=O)N(C)C)cc3c2=O)C1 (centres undefined)	1.2	9	nt	4.4	-11	nt	-7%
C1CCN(c2nc3nonc3nc2N2CCCC2)C1	4.0	-2	1.9	-3.6	0	-1	-7%
O=C(N/N=C/c1cc2c(cc1[N+](=O)[O-])OCO2)c1ccccn1	-1.3	-7	-2.3	-4.6	-24	-10	nt
Cc1noc(C)c1C(=O)Nc1ccccn1	-2.4	-6	0.4	1.8	-7	-7	21%
COc1ccccc1NC(=O)c1c(N=Cc2ccccc2O)cnn1C	1.4	nt	-0.7	nt	1	-20	-9%
COc1ccc(N2C(=O)C(CC(=O)Nc3ccccc3)N(Cc3cccs3)C2=O)cc1 (centres undefined)	0.4	5	1.7	-7.4	9	-2	-14%
O=C(COc1ccc(Br)cc1)Nc1nc(-c2cccnc2)cs1	-0.2	-8	-0.9	1.7	-2	-1	17%
Cc1c(C(=O)N2CCOCC2)c(S(=O)(=O)Nc2ccccc2F)c(C)n1C	-1.5	2	-0.8	-2.5	2	-12	-3%
CCOC(=O)c1ccc(NC(=S)NC(=O)c2nn(CC)cc2Br)cc1	3.4	0	4.1	2.4	-5	-5	12%
COc1cccc(CNC(=O)C2CCN(S(=O)(=O)N3CCCC3)CC2)c1	2.5	-6	-0.4	-3.5	-4	?	2%
Cc1ccc(N2CC(C(=O)NCCCn3ccnc3)CC2=O)cc1 (centres undefined)	4.1	2	0.7	1.9	-4	20	-4%
COc1ccc(Cn2nnnc2C(c2ccc(C)cc2)N2CCN(C3CCCC3)CC2)cc1 (centres undefined)	-0.7	4	-1.2	3.5	-21	-22	3%&-4%
CN(C)C(CNC(=O)c1ccc(Cl)c(S(=O)(=O)N2CCCCCC2)c1)c1ccccc1 (centres undefined)	15*	7	nt	-1.1	nt	nt	nt
O=C(COc1ccc(F)cc1)Nc1ccc(S(=O)(=O)Nc2ncccn2)cc1	-1.7	-2	2.5	7.5	-18	-4	nt
CCCCCN(C(=O)CCC(=O)OCc1cc(C)ccc1C)c1c(N)n(CCCC)c(=O)[nH]c1=O	0.4	9	?	-1.0	-3	-2	-7%
COC(=O)c1cc(-c2c(-c3ccc4c(c3)OCO4)noc2-c2ccsc2)cc([N+](=O)[O-])c1	-1.6	2	-3.1	1.7	46	10	nt
CC(NCc1ccccc1)C1COc2ccccc2O1 (centres undefined)	-1.7	-3	-3.6	1.5	nt	-10	-1%
O=C(Nc1cccc(Cl)c1Cl)c1ccc(-c2ccccc2)cc1	2.1	-7	-0.2	0.4	nt	6	-8%
C1=Nc2c(NCc3ccccc3)ncnc2Oc2ccccc21	1.3	0	1.5	0.1	-4	-4	-3%
CCCn1c(N)c(C(=O)CSc2nnc3n2CCCCC3)c(=O)[nH]c1=O	0.9	-3	nt	-33	1	nt	-2%
O=C1C(=O)c2ccccc2C(O)=C1C1CCC(c2ccc(Cl)cc2)CC1 (centres undefined)	1.5	10	nt	2.4	-21	nt	nt
O=C1CNC(=O)N1c1ccc(Cl)cc1	1.8	-10	3.0	-1.1	-6	4	1%
CN1CCN(NC(=S)Nc2ccc(Oc3ccccc3)cc2)CC1	7.3	-2	5.0	-2.2	24	13	-7%
COc1ccc(N2CCN(Cc3nc(N)nc(Nc4ccc(C)c(Cl)c4)n3)CC2)cc1	1.1	-2	8.6	-0.8	28	73	31%
O=C(CCC(=O)NNc1nc2ccccc2c2nc(-c3ccccc3)nn12)NCCCN1CCCC1=O	1.3	-2	?	1.0	37	-5	7%
CCn1nc(C)c(/C=N/NC(=O)c2ccc3c(c2)c(C)c(C)n3Cc2ccccc2)c1C	3.6	10	1.8	-0.2	3	-47	-2%
COc1cc(C)cc(C(=O)C=Cc2ccccc2)c1O	nt	25	nt	3.1	nt	nt	-1%
O=C(NCC1CC1)c1onc(CSc2ccc(F)cc2)c1C(=O)NCC1CC1	1.9	-15	7.6	-2.7	nt	-1	nt
Cc1cc(C(=O)N2CCC(C(=O)O)CC2)c(C(F)(F)F)o1	4.0	-1	-2.1	0.3	2	7	-3%
CCCCCc1nnc(NC(=O)Cc2ccc([N+](=O)[O-])cc2)s1	5.6	8	5.5	5.9	-2	-11	-4%
COc1cccc(-n2nnnc2SCC(=O)NCc2ccco2)c1	5.9	-1	-1.8	-2.1	47	-5	2%
N#CC1=C(N)NC(SCC(=O)O)=C(C#N)C12CCCC2	-2.3	0	6.0	1.0	7	1	1%
COc1ccccc1N1CCN(C(=O)c2c(C)noc2C)CC1	-5.7	-4	1.8	-3.4	10	-4	-3%
CCCCOc1ccc(/C=N/NC(=O)c2nnn(-c3nonc3N)c2CN2CCCCCC2)cc1	-0.8	-22	28*	5.0	-2	4	-7%
O=C(COc1ccc(Br)cc1)N/N=C1/SCC(=O)N1Cc1ccco1	-3.5	-4	2.0	1.3	30	3	24%
O=C(N/N=C/c1cccc(C(F)(F)F)c1)c1ccccc1O	-0.5	4	5.9	1.8	2	-11	2%
CCCCN1C(=O)C(NC(=O)CC(C)C)(C(F)(F)F)C2=C1CC(C)(C)CC2=O (centres undefined)	-4.2	0	-2.0	0.9	-1	6	-4%

Continued:
structure	LANA-H2A inh	B2AR ag	RanGTP-Impb inh	HNF4A DNA FP	ALR inh	Calb FLC	Vif TR-FRET
CCCCNC(=O)c1cccc(S(=O)(=O)N2CC3(C)CC2CC(C)(C)C3)c1 (centres undefined)	0.2	3	nt	-1.8	-9	nt	?
Cc1ccc(-n2nnnc2-c2cnn(-c3cccc(F)c3)c2C(F)(F)F)cc1	-2.3	1	1.7	-0.2	2	11	0%
CS(=O)(=O)N(CC(=O)N1CCCCCC1)c1cccc([N+](=O)[O-])c1	-1.8	-4	-0.6	1.8	-3	-1	-2%
Cc1ccc(Nc2nc(-c3c(C)nc4ccccn34)cs2)cc1	nt	43*	?	2.9	nt	50	6%
Cc1ccc(NC2SC(=O)N(Cc3cccc(C(=O)O)c3)C2=O)cc1 (centres undefined)	-1.7	2	-6.4	-2.5	45	7	1%
Cc1ccc(S(=O)(=O)N2CCN(CC(=O)Nc3ccnn3C3CCCC3)CC2)cc1	2.3	-1	nt	-2.5	nt	nt	nt
O=C(c1ccc(-c2ccc(Cl)cc2Cl)o1)N1CCOCC1	4.2	-7	-4.4	1.0	-4	29	-2%
N#CCSc1nnc(-c2c[nH]c3ccccc23)o1	1.0	6	0.0	-0.4	-4	20	nt
COc1ccc(OC)c(NC(=O)CN2C(=O)NC(C)(c3ccc4c(c3)OCCO4)C2=O)c1 (centres undefined)	6.3	-2	nt	0.5	-9	nt	nt
COc1ccc(C2C=C(C34CC5CC(CC(C5)C3)C4)NC(=S)N2)cc1OC (centres undefined)	0.9	8	-4.1	1.3	-7	3	-2%
COc1cccc(C(=O)N2c3cc(C)ccc3OCC2C(C)(C)C)c1 (centres undefined)	2.3	-11	3.6	2.6	-3	-2	-6%
Cc1ccc(/C=N/n2c(C)nnc2C)s1	4.0	-6	1.5	1.1	-6	9	-1%
Cc1cccc(C(=O)OC2CCCN(C)C2)c1C (centres undefined)	-2.3	-1	8.9	-0.2	-17	-3	5%
Nc1nc(SCC(=O)Nc2cc(Cl)c(Cl)cc2Cl)n[nH]1	-1.1	4	nt	-1.8	-3	nt	-4%
CCN(CC(=O)Nc1c(F)cccc1F)C(=O)c1ccc(Cl)c(S(=O)(=O)N2CCCCC2)c1	5.0	7	?	-0.2	14	1	nt
COc1cc2cc(CCCOC(=O)c3cc(OC)c(OC)c(OC)c3)oc(=O)c2cc1OC	0.7	-3	nt	-6.4	-8	nt	nt
COc1cc(NC(=O)c2c(Cl)cnn2C)c(OC)cc1Cl	0.9	-10	3.9	-2.4	-3	4	12%
CSc1ccc(C2c3[nH]c4ccccc4c3CCN2C(=O)c2ccnn2C)cc1 (centres undefined)	-1.7	17	-4.3	-4.0	-5	92*	nt
Cc1cc(C(F)(F)F)n2nc(-c3cnn(C)c3C(F)(F)F)c(Cl)c2n1	2.6	-7	-5.6	-3.3	-2	-6	?

Assay outcomes (PubChem)
